MT1-MMP promoter: inhibitors of MT1-MMP promoter transcription, cell-based, luciferase reporter, luminescence (AID 618) | MT1-MMP promoter luciferase reporter cells, luminescence | calls from a first round at 10 µM; hits with a dose series show EC50 in µM | hit rate 0.62% among 87,000;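 active = over half of the reporter light lost at 10 µM or EC50 under 50 µM; inactive = the rest and hits that failed the dose series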;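 note: actives suppress MT1-MMP promoter-driven transcription so potencies describe inhibitors; HT1080 fibrosarcoma cells; overnight exposure; toxic or luciferase-blocking compounds were not removed from the actives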
Hsc70: Hsc70 inhibitors, probe displacement, primary screen, biochemical, fluorescence polarization (AID 568). Hsc70 fluorescence polarization, probe displacement; higher % means a stronger effect; strong numbers were not always called active. displacement, % at 20 µM; hits with a dose series show IC50 in µM. 83,000 tested, under 10 active;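 active = displacement above 50% without optical interference and an IC50 on retest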;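 note: ATPase domain with a fluorescein-tagged ATP probe; 0% = vehicle and 100% = excess ADP; read after one hour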
WNV NS2B-NS3 inh: WNV NS2B-NS3 proteinase inhibition. P06935. WNV NS2B-NS3 protease, fluorogenic substrate Ex360/Em465; hits give low values. z-score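 (tested at a level between 10 and 100 µM)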. hit rate 0.18% among 65,000. AID 577;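 active = z-score at -3 or under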;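 note: score is relative to mean and spread of the compound wells of a plate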
Target sequence (P06935 1371-1501 limits assumed): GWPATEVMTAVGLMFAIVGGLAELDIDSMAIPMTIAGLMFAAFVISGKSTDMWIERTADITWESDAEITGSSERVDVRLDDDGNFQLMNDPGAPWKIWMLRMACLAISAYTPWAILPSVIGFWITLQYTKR
Target sequence (P06935 1502-1679 limits assumed): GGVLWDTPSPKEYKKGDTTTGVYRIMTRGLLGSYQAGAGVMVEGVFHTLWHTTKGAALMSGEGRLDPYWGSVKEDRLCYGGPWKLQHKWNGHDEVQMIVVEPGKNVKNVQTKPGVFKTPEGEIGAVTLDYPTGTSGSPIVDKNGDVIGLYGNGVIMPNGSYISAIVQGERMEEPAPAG
* marks the source's active call; other numbers are inactive results; i = inactive; / = no result given.

Sample of the layout (two entries):
SMILES | MT1-MMP promoter | Hsc70 | WNV NS2B-NS3 inh
N#Cc1c(NC(=O)c2ccncc2)sc2c1CCC2 | i | -3.8% | 2.1
COc1ccc(OC)c(S(=O)(=O)NC2CCCCC2)c1 | i | 2.2% | /

All compounds of this part, repeating the preview:
SMILES | MT1-MMP promoter | Hsc70 | WNV NS2B-NS3 inh
N#Cc1c(NC(=O)c2ccncc2)sc2c1CCC2 | i | -3.8% | 2.1
COc1ccc(OC)c(S(=O)(=O)NC2CCCCC2)c1 | i | 2.2% | /
CC(=O)c1c(C)[nH]c(C(=O)NC2=NCCS2)c1C | i | -2.6% | 0.26
COc1ccc(-c2c(C(F)(F)F)oc3c(CN4CCN(C)CC4)c(O)ccc3c2=O)cc1 | i | -0.8% | -0.13
CCOc1ccc(N(C(C)C(=O)NCc2ccco2)S(C)(=O)=O)cc1 (stereo unspecified) | i | 0.0% | /
CC(C)Cc1nc2n[nH]c(N)c2c2c1CCC2 | i | 2.0% | -0.46
O=C(O)CN(c1ccc2c(c1)OCCO2)S(=O)(=O)c1ccccc1 | i | -2.0% | 0.05
C/C(NCCCn1ccnc1)=C(\C#N)C(N)=O | i | -5.8% | 0.36
CC(C)COCC1CC2(CC(C)C(=O)CC2=O)C(=O)O1 (stereo unspecified) | i | -0.4% | 0.59
CCN(CC)CC(O)COc1ccc2c(c1)c(C(C)=O)c(C)n2-c1ccccc1 (stereo unspecified) | i | 0.7% | /
COc1ccc(NC2=C(C(C)=O)C(c3ccc4c(c3)OCO4)C(C(C)=O)C(C)(O)C2)cc1 (stereo unspecified) | i | 0.9% | -1.8
COc1cc(NCCCCCCCN)c2ncccc2c1 | i | -0.2% | /
O=C(C1CCN(S(=O)(=O)c2ccc(F)cc2)CC1)N1CCOCC1 | i | 0.9% | -0.11
CSC1=C(C#N)C(c2ccc(C)cc2)C2=C(CCCC2=O)N1 (stereo unspecified) | i | 2.8% | 0.17
Cc1cccc(NC(=O)c2cc(NC(=O)C3CCCCC3C(=O)O)ccc2N2CCCCC2)c1 (stereo unspecified) | i | 4.7% | 0.92
CNC(=O)c1ccsc1NC(=O)c1ccc(Cl)s1 | i | 1.3% | -1.3
Cc1[nH]c2ccccc2c1C(c1ccccn1)c1c(C)[nH]c2ccccc12 | i | -0.3% | /
CC(=O)N1CCc2cc(S(=O)(=O)NCCC(=O)NCCc3ccccc3)ccc21 | i | 2.8% | 0.61
O=c1cc(NCc2ccco2)[nH]c(=O)n1-c1ccc(Br)cc1 | i | -10% | -0.19
Cc1ccc(CSc2ncnc3c2cnn3Cc2ccccc2)cc1C | i | 1.8% | /
COc1ccccc1-n1cnnc1SC1CCOC1=O (stereo unspecified) | i | -2.8% | -0.61
CCCOC(=O)/C(=C\c1ccc([N+](=O)[O-])o1)NC(=O)c1ccccc1 | i | 0.7% | /
O=C(OCc1cc2ccccc2[nH]c1=O)c1ccncc1 | i | -7.7% | -0.6
CC1=C(C(=O)OC2CCCCCCC2)C(c2ccc(O)cc2)NC(=O)N1 (stereo unspecified) | i | 1.6% | -0.07
COc1ccc(N2CCN(c3oc(Cc4ccccc4)nc3C#N)CC2)cc1 | i | 7.4% | /
O=C(CN(Cc1ccco1)C(=O)CNS(=O)(=O)c1ccc(Cl)cc1)NC1CCCCC1 | i | -2.7% | 1.5
COc1ccc(C2C(C(N)=O)=C(C)Nc3ncnn32)cc1 (stereo unspecified) | i | 3.3% | 0.52
COC(=O)c1c(C(C)=O)cnc2ccc(Br)cc12 | i | 1.0% | -0.4
O=C(Nc1ccc(Cl)c(Cl)c1)OCCNC(=O)c1cccc(Cl)c1 | i | 6.4% | /
O=C(NC1CCCCC1)c1sc(=S)n2c1[nH]c(=O)c1ccccc12 | i | -2.8% | -0.39
Cc1ccc(C)c(N(CC(=O)NCCC2=CCCCC2)S(C)(=O)=O)c1 | i | -1.4% | /
Cc1nc(SCC(=O)c2cccs2)c2oc3ccccc3c2n1 | i | -3.1% | /
O=C(CSc1nnc(-c2cccnc2)n1Cc1ccco1)c1ccccc1 | i | -0.6% | -0.52
CCOC(=O)C1CCCN(C(=O)CS(=O)(=O)Cc2ccccc2)C1 (stereo unspecified) | i | 0.2% | 1
CCn1c(SCc2nc3ccccc3[nH]2)nnc1-c1ccncc1 | i | -21% | 1.9
COCC(=O)Nc1nnc(CCc2ccccc2)s1 | i | 6.0% | -0.06
CC1CCN(C(=O)C(Cc2ccccc2)n2cccc2)CC1 (stereo unspecified) | i | -5.8% | -0.2
CCOC(=O)CNC(=O)Cn1cnc2c(nnn2-c2cccc(Cl)c2)c1=O | i | 3.7% | 0.76
CCOc1ccc(S(=O)(=O)N(CC(N)=O)c2ccc(C)cc2)cc1 | i | -8.2% | -0.29
Cc1nc2sccn2c(=O)c1CCN1CCC(=C(c2ccccc2)c2ccc(F)cc2)CC1 | i | -1.9% | -0.12
CN(Cc1ccccc1)c1nc2c(c(=O)n(C)c(=O)n2C)n1CCCc1ccccc1 | i | 0.5% | 0.86
C/C(N)=C(/C#N)C(=O)COC(=O)c1ccncc1 | i | 8.5% | 0.16
C/C(=N\OC(=O)Nc1ccc(Cl)cc1)c1ncc(C(F)(F)F)cc1N1CCOCC1 | i | -2.3% | /
Cc1nn(CC(=O)NCc2ccccc2)c(=O)c2ccccc12 | i | 0.5% | -0.81
CCOc1ccc(NC(=O)CSc2nnc(C)n2CC2CCCO2)cc1 (stereo unspecified) | i | 4.2% | /
Cc1nc2c(s1)sc1ccccc12 | i | 2.7% | 0.11
CCOC(=O)N1CCN(C(=O)c2ccc3c(=O)n(CCC4=CCCCC4)c(=S)[nH]c3c2)CC1 | i | 0.4% | -0.44
CC(=O)OCCNC(=O)c1cc2ccccc2oc1=O | i | 5.4% | 0.88
O=C(CSc1ccccc1)Nc1ccncc1 | i | -2.3% | 0.27
CCOCCOC(=O)C1=C(C)NC2=C(C(=O)CC(c3cccs3)C2)C1c1ccsc1 (stereo unspecified) | i | 0.4% | 1

2 entries drawn at random from the list so far:
SMILES | MT1-MMP promoter | Hsc70 | WNV NS2B-NS3 inh
C/C(N)=C(/C#N)C(=O)COC(=O)c1ccncc1 | i | 8.5% | 0.16
CCOC(=O)N1CCN(C(=O)c2ccc3c(=O)n(CCC4=CCCCC4)c(=S)[nH]c3c2)CC1 | i | 0.4% | -0.44

Continuation:
SMILES | MT1-MMP promoter | Hsc70 | WNV NS2B-NS3 inh
CC(=O)Cc1nsc(NC(=O)c2cc(-c3ccccc3Cl)oc2C)n1 | i | 2.4% | -1.9
O=C(NCCc1ccccc1)C1CCN(C(=O)NCc2ccccc2)CC1 | i | 0.6% | /
CC(C)CC(=O)NS(=O)(=O)c1ccc(N)cc1 | i | 3.3% | /
COc1ccc(NC(=O)Cn2nc(C(F)(F)F)c3c2CCCC3)cc1OC | i | 1.1% | /
CCN1c2cccc3cccc(c23)S1(=O)=O | i | 7.3% | /
O=C(O)CCc1ccc(-c2ccccc2)n1-c1cccc(O)c1 | i | -11% | 0.04
COCCNC(=O)CN(C(=O)CCC(=O)Nc1cc(C)on1)c1ccc(C)cc1C | i | -5.6% | 0.83
COc1cc(C(=O)Nc2ccc(-c3nc4cc(C)ccc4o3)c(O)c2)cc(OC)c1OC | i | -0.4% | 0.35
COC(=O)CC/C(O)=C1\C(=O)CC(C)(C)CC1=Nc1ccccc1OC | i | 3.2% | /
Cc1cc(C)c2c(=O)n(CC(=O)NCCCN3CCN(c4ccccc4F)CC3)sc2n1 | i | -3.5% | -0.6
Cc1nnc(SC(=O)N2c3ccccc3Sc3ccccc32)s1 | i | -3.5% | -1
CCOP(=O)(c1ccccc1)c1nc(-c2ccc(F)cc2)oc1N1CCCCC1 (stereo unspecified) | i | -3.9% | -1.2
COCCCNc1nc2c(c(=O)[nH]c(=O)n2C)n1CC(O)COc1ccccc1 (stereo unspecified) | i | 1.9% | 0.75
Cc1cc(NC(=O)CSc2nnc(-c3ccc4c(c3)OCCO4)o2)no1 | i | 4.3% | -0.73
Cc1cc(NC(=O)CSc2nc3ccccc3s2)no1 | i | 6.3% | /
c1ccc(-c2cnnc(N3CCOCC3)n2)cc1 | i | 5.4% | /
CCCCOC(=O)NC(NCC(O)c1ccccc1)(C(F)(F)F)C(F)(F)F (stereo unspecified) | i | 1.7% | /
COCCCN1C(=O)C(=O)/C(=C(/O)c2ccc(OCC(C)C)cc2)C1c1cccnc1 (stereo unspecified) | i | 0.3% | -1.2
COc1ccc(C(=O)CSc2nc3nc(C)cc(C)n3n2)cc1OC | i | 1.4% | -0.76
Cc1onc(-c2ccccc2)c1C(=O)Nc1cccc(OC(C)C)c1 | i | -1.6% | -0.27

Part of the list above, as labelled records.
CCCOC(=O)/C(=C\c1ccc([N+](=O)[O-])o1)NC(=O)c1ccccc1
  MT1-MMP promoter = i | Hsc70 = 0.7% | WNV NS2B-NS3 inh = /
O=C(OCc1cc2ccccc2[nH]c1=O)c1ccncc1
  MT1-MMP promoter = i | Hsc70 = -7.7% | WNV NS2B-NS3 inh = -0.6
CC1=C(C(=O)OC2CCCCCCC2)C(c2ccc(O)cc2)NC(=O)N1 (stereo unspecified)
  MT1-MMP promoter = i | Hsc70 = 1.6% | WNV NS2B-NS3 inh = -0.07
COc1ccc(N2CCN(c3oc(Cc4ccccc4)nc3C#N)CC2)cc1
  MT1-MMP promoter = i | Hsc70 = 7.4% | WNV NS2B-NS3 inh = /

New compounds follow
SMILES | MT1-MMP promoter | Hsc70 | WNV NS2B-NS3 inh
COc1ccc(NC(=O)N2CCCC2)cc1OC | i | -12% | -1
Cc1nc(N2CCN(C(=O)c3ccco3)CC2)c2c3c(sc2n1)CCC3 | i | -2.7% | -0.03
O=C(c1cncc(Br)c1)N1CCN(c2ccc(N3CCOCC3)nn2)CC1 | i | 2.9% | 0.76
CC(=O)C1=C(C)Nc2ncnn2C1c1ccc(Cl)cc1 (stereo unspecified) | i | 4.8% | -0.67
CCOC(=O)CNC(=O)Cn1c(C)cc2ccccc2c1=O | i | -3.1% | -0.69
CN(C(=O)c1ccno1)c1nnc(-c2ccccn2)s1 | i | -4.1% | 0.6
CCOc1cccc2cc(C(=O)N3CCc4ccccc43)c(=O)oc12 | i | -58% | -0.01
C=CCn1c(COc2ccc(Cl)cc2)nnc1SCC(=O)N1CC(=O)Nc2ccccc21 | i | 1.4% | -0.22
Cc1ccc(-c2nnn(CC(=O)N(c3ccccc3)C(C(=O)NC3CCCC3)c3ccco3)n2)o1 (stereo unspecified) | i | 0.2% | -0.2
Cc1ccc2nc(SC(C)C(=O)N3CCCC3)[nH]c2c1 (stereo unspecified) | i | -2.2% | 0.08
Cc1csc2ncc(C(=O)NCc3ccccc3Cl)c(=O)n12 | i | 3.2% | -0.42
Cc1c(NC(=O)C(C)Oc2ncnc3ccccc23)c(=O)n(-c2ccccc2)n1C (stereo unspecified) | i | 0.7% | -0.12
CC(C)N(Cc1nc(-c2ccccc2)no1)C(=O)CCCN1C(=O)c2ccccc2C1=O | i | -1.0% | -0.25
Cc1noc(C)c1COC(=O)[C@H](C)NS(=O)(=O)c1ccc(Cl)c(Cl)c1 | i | 1.6% | /
O=C(Nc1ccc(C(=O)N2CCOCC2)cc1)c1cccs1 | i | 1.0% | 0.5
CCOC(=O)C1CCN(C(c2cc3cc(C)cc(C)c3[nH]c2=O)c2nnnn2C2CCCCC2)CC1 (stereo unspecified) | i | -0.9% | 0.81
CCCc1nnc(SCc2ccc(OC)cc2)n1N | i | 7.8% | 0.81
c1ccc2c(c1)oc1c(NCCCN3CCOCC3)ncnc12 | i | 1.8% | -0.67
COC(=O)Cn1cnc(=O)c(C#N)c1/C=C/N(C)C | i | -4.6% | -0.92
c1ccc(-c2nc3nonc3nc2-c2ccccc2)cc1 | i | -8.9% | 1.5
COc1ccc(Cl)cc1N1CC(C(=O)Nc2nccs2)CC1=O (stereo unspecified) | i | -6.1% | 0.12
O=C(C1CCCN(S(=O)(=O)c2cccc3cccnc23)C1)N1CCN(c2ccc(F)cc2)CC1 (stereo unspecified) | i | 2.4% | -1
CCNc1nc(SCCOc2ccc(C)cc2)nc(N(C)C)n1 | i | 7.3% | -0.51
C/C=C(\CS(=O)(=O)c1ccccc1)S(=O)(=O)c1ccccc1 | i | 0.1% | -0.35
Cc1cc(N(C)C)c(C#N)c(=O)[nH]1 | i | -2.7% | 0.36
CC1(C)Cc2c(c(-c3ccccc3)[nH]c(=O)c2C#N)CS1 | i | -1.1% | 1.5
Cc1ccc2nsnc2c1S(=O)(=O)NCc1cccnc1 | i | -0.1% | 0.38
COc1ccc(CCNc2oc(COc3ccccc3F)nc2C#N)cc1OC | i | -8.8% | -0.37
CCN=C1SC(CC(=O)Nc2sc(C)c(C)c2C(=O)OC)C(=O)N1CC (stereo unspecified) | i | 2.9% | -0.53
CCC(C(=O)O)N1C(=O)c2ccccc2C1=O (stereo unspecified) | i | -1.1% | /
Cc1cccc(CCNC(=O)C2CCCN(S(=O)(=O)c3cnc[nH]3)C2)c1 (stereo unspecified) | i | 1.6% | 1.7
NC1=NC2(CCCCC2)N(c2ccc(F)cc2)C(N)=N1 | i | -6.1% | /
CCCn1c(SCC(=O)Nc2sc(C)c(C)c2C#N)nnc1C(C)C | i | 1.5% | /
Cc1cc(F)c(F)c(C(=O)N2CCN(C)CC2)c1Cl | i | -3.7% | -0.58
CN(Cc1cnn(C)c1)C(=O)c1cc2ccccc2oc1=O | i | 2.5% | 0.36
COc1ccc(C2C(C(=O)NCCN(C)C)c3ccccc3C(=O)N2C)cc1OC (stereo unspecified) | i | 2.3% | -0.43

Source: PubChem

Not all compounds are listed; rates above refer to the full screens.
